Screening results deposited in PubChem BioAssay by National Center for Advancing Translational Sciences (NCATS).
PINK1 expr mod: changes PINK1 expression; PINK1 immunofluorescence, high-content cytometry, 24 h; 410,000 tested, 0.2% active; AID 624263; Potency, µM (titrated, usually from 76.6 µM), inactives show at the top dose activation (PINK1 increase), most hits filed as activators; active = well fitted activation curve with a large enough effect; inconclusive = small, poorly fitted or top-dose-only effect; inactive = flat fitted curve, though single readings scatter; cell line not stated here;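 also: % of control where 0% means no effect; nearly all actives have a fitted effect of over 65% in size; a mitochondrial uncoupler was the plate control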
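Stable cell line treated 24 h with compounds at 5 concentrations (CCCP controls), then fixed and immunostained for PINK1 plus nuclear and cell stains; PINK1 immunofluorescence quantified by laser-scanning microplate cytometry.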
Starred values were filed as active, the others as inactive; ? = inconclusive. Potency is read from the fitted curve at half-maximal effect.

PINK1 expr mod | Compound
1.9% | CCn1c(CC2C(=O)N(C)c3ccc(Br)cc32)nc2ccccc2c1=O (stereo unspecified)
-1.8% | CCN(CC)C(=O)CSc1nc2ccsc2c(=O)n1Cc1ccccc1Cl
0.1% | Cc1ccc(NC(=O)Cc2c(C(=O)O)c(C)cn2C)cc1Cl
0.6% | CC1CC(C)CN(c2oc(-c3ccc(OCc4ccc(Cl)cc4)cc3)nc2C#N)C1 (stereo unspecified)
-0.8% | COc1cc(C2c3c(oc4ccc(C)cc4c3=O)C(=O)N2Cc2ccccc2)ccc1O (stereo unspecified)
1.8% | O=c1c2cccnc2n(Cc2cccc(F)c2)c(=O)n1Cc1ccccc1Cl
? | Cc1ccc(OCCn2c(C3CC(=O)N(Cc4ccc(F)cc4)C3)nc3ccccc32)c(C)c1 (stereo unspecified)
0.9% | Cc1ccc(NC(=O)CN2CCN(c3ccccc3F)CC2)cc1F
0.8% | Cc1ccc(-n2c(=O)c3c4c(sc3n(CC(=O)Nc3ccccc3C)c2=O)CCCCC4)cc1C
0.5% | CCc1ccccc1OCC(=O)Nc1ccc(S(=O)(=O)Nc2nc(C)cc(C)n2)cc1
0.0% | Cc1cc(C)c(NC(=O)Cn2nc3c(cc2=O)CCCC3)c(C)c1
1.5% | Cc1nn(-c2ccccc2)c2c1cc1c(=O)[nH]c(=O)nc-1n2-c1cccc(C(F)(F)F)c1
0.4% | COc1ccc(OC)c(NC(=O)CSc2ccc(-c3sc(C)nc3C)nn2)c1
-0.7% | COc1ccccc1NC(=O)CN1C(=O)C(c2ccc(F)cc2)=NC1(C)C
1.4% | Cc1ccc(C(=O)c2oc3ccccc3c2NC(=O)COc2ccccc2C)cc1
2.8% | COc1cc(NC(=O)c2cc(S(=O)(=O)N3CCC(C)CC3)cn2C)cc(OC)c1OC
-0.8% | CCn1nc(-c2ccccc2C)nc2c(=O)n(C)c(=O)nc1-2
-3.1% | COC(=O)c1ccc(OCC2c3cc(OC)c(OC)cc3CCN2C(=O)COc2ccc(Cl)cc2)cc1 (stereo unspecified)
-0.2% | COCCCN1C(=O)c2ccccc2CC1(C)C(=O)NC1CCCCC1 (stereo unspecified)
1.3% | Cc1ccc(C)c(NC(=O)C(NS(=O)(=O)c2ccc3c(c2)CCC(=O)N3)c2ccccc2)c1 (stereo unspecified)
3.8% | CCOc1ccccc1CNC(=O)c1cnc2sc(N3CCC(C)CC3)nn2c1=O
-3.2% | Cc1cc(C)cc(C(=O)Nc2c3c(nn2-c2ccccc2C)CS(=O)(=O)C3)c1
-0.4% | COc1ccc(-c2nc(SCC(=O)NCCc3ccccc3)n[nH]2)cc1
5.4% | CCc1ccc(CNC(=O)CN2C(=O)c3cccnc3Oc3ccc(C)cc32)cc1
1.5% | CCOc1ccc(-c2nnc(SCC(=O)NCCc3ccccc3)nc2-c2ccc(OCC)cc2)cc1
3.8% | COc1ccc(CCNC(=O)c2nn(C)c3c2CSc2ccccc2-3)cc1OC
1.2% | COc1cccc(-c2ccnc3c(-c4ccc(F)cc4)c(C)nn23)c1
1.0% | CCC(C(=O)NC1CCC(C)CC1)n1nc(C)c2sc3ccccc3c2c1=O (stereo unspecified)
-0.7% | COc1ccc(-c2[nH]ncc2C(=O)NCc2cccc(Cl)c2)cc1
2.2% | Cc1ccc(CNC(=O)Cn2c(=O)n(-c3ccccc3)c(=O)c3c2c2cc(C)ccc2n3C)cc1

In the list so far, these have two or more sulfur atoms.
PINK1 expr mod | Compound
-1.8% | CCN(CC)C(=O)CSc1nc2ccsc2c(=O)n1Cc1ccccc1Cl
0.4% | COc1ccc(OC)c(NC(=O)CSc2ccc(-c3sc(C)nc3C)nn2)c1

(continued)
PINK1 expr mod | Compound
-1.1% | O=C(CSc1oc(-c2ccco2)nc1S(=O)(=O)c1ccc(Br)cc1)c1ccc(Cl)cc1
3.2% | COc1ccc(CC(=O)N2CC(=O)Nc3ccc(Br)cc3C2c2ccc(F)cc2)cc1OC (stereo unspecified)
4.8% | Cc1ccc(CNC(=O)CN(c2cc(C)cc(C)c2)S(=O)(=O)c2c(C)noc2C)cc1
-1.7% | CC1=C(C(N)=O)C(c2ccc(F)cc2)n2nc(-c3ccccc3Cl)nc2N1 (stereo unspecified)
0.6% | Cc1cc(C)cc(NC(=O)CN2C(=O)c3ccccc3Sc3ccc(C(=O)N4CCCC4)cc32)c1
3.5% | CCCNC(=O)C1CCN(c2cc(C)nc3c(-c4ccc(OC)c(OC)c4)c(C)nn23)CC1
3.0% | COc1ccc(CCNC(=O)C2COc3ccccc3C2)cc1OC (stereo unspecified)
-0.4% | Cc1ccc(OCC(=O)NCC2(N3CCN(C)CC3)CCCCC2)cc1
5.9% | Cc1c(Cl)cccc1NC(=O)c1ccc2snnc2c1
2.2% | CCn1c(=O)cc(OCC(=O)Nc2cc(Cl)c(OC)cc2OC)c2ccccc21
1.1% | COc1ccc(S(=O)(=O)NCCc2csc(-c3ccc(F)cc3)n2)cc1F
8.5% | Cc1ccc(CN2CCc3nc(Nc4ccc5c(c4)OCCO5)ncc3C2)cc1
-0.7% | O=C(Cn1c(=O)n(-c2ccccc2)c(=O)c2ccc(C(=O)NCc3ccc4c(c3)OCO4)cc21)Nc1ccc(Br)cc1
0.6% | O=C(NC1CC(=O)N(c2cccc(F)c2)C1)C1CCCCC1 (stereo unspecified)
0.9% | O=C(Cn1cc(S(=O)(=O)c2ccccc2)c(=O)c2cc3c(cc21)OCO3)Nc1ccccc1
2.7% | COc1cc(OC)cc(-c2nc3nc(C)c(CCC(=O)Nc4ccc(F)cc4F)c(C)n3n2)c1
2.8% | COc1ccc(-c2noc(CN(C(=O)COc3cc(C)c(Br)c(C)c3)C(C)C)n2)cc1
2.6% | COc1cccc(NC(=O)Nc2cccc(-c3cn4cccnc4n3)c2)c1
1.8% | CN(c1ccccc1)c1ncnc2c1cnn2C
5.1% | Cc1ccc(Nc2nc(C(N)=O)c(NC(=O)c3ccccc3Br)s2)cc1
0.6% | O=C(CSc1nc2c([nH]c3ccccc32)c(=O)n1-c1ccccc1)N1CCCc2ccccc21
-0.1% | O=C(Nc1nc2n(n1)C(c1ccc(F)cc1)C=C(c1ccccc1)N2)c1cccc([N+](=O)[O-])c1 (stereo unspecified)
0.0% | Cc1ccc(C)c(OCCn2cc(C(=O)c3ccco3)c3ccccc32)c1
-0.8% | O=C(c1ccco1)N1CCN(c2nc3c(Cl)cccc3s2)CC1
-0.6% | CCN(C(=O)c1ccc2c(=O)n3c(nc2c1)CCCCC3)c1cc(C)ccc1C
0.6% | Cc1ccc(S(=O)(=O)N2CCN(c3nc(-c4ccc(C)s4)nc4ccccc34)CC2)cc1
-2.6% | Cc1nc(S(=O)(=O)N2CCN(c3ccccc3F)CC2)cn1C
1.3% | COc1ccc(N2CCN(C(=O)c3cc(S(=O)(=O)N4CCC(C)CC4)cn3C)CC2)cc1
1.3% | CC(=O)N1c2ccc(S(=O)(=O)NCC3CCC(C(=O)Nc4ccc(C)c(C)c4)CC3)cc2CC1C (stereo unspecified)
0.9% | O=C(CSc1nc2c(oc3ccccc32)c(=O)n1-c1ccccc1F)Nc1ccccc1

Given as a markdown table: entries from further up
| molecule | PINK1 expr mod |
| --- | --- |
| O=c1c2cccnc2n(Cc2cccc(F)c2)c(=O)n1Cc1ccccc1Cl | 1.8% |
| Cc1ccc(OCCn2c(C3CC(=O)N(Cc4ccc(F)cc4)C3)nc3ccccc32)c(C)c1 (stereo unspecified) | ? |

Taken from above.
Result of O=c1c2cccnc2n(Cc2cccc(F)c2)c(=O)n1Cc1ccccc1Cl under PINK1 expr mod: 1.8%
Result of CCn1c(CC2C(=O)N(C)c3ccc(Br)cc32)nc2ccccc2c1=O (stereo unspecified) under PINK1 expr mod: 1.9%
Result of CCc1ccccc1OCC(=O)Nc1ccc(S(=O)(=O)Nc2nc(C)cc(C)n2)cc1 under PINK1 expr mod: 0.5%

Continuation:
PINK1 expr mod | Compound
1.6% | COc1cc(Cl)c(C)cc1NC(=O)C1CCN(c2nc3ccccc3n3cccc23)CC1
1.5% | O=C(NC1CC(=O)N(c2cccc(F)c2)C1)C1CCCC1 (stereo unspecified)
? | CCN(CC)c1cc(C)c2cc(NC(=O)c3cccc(OC)c3OC)ccc2n1
0.8% | COc1ccc(S(=O)(=O)n2ccnc2)cc1C(C)(C)C
0.6% | Cc1cccc(-c2nc(C(N)=O)c3c(n2)n(-c2ccc4c(c2)OCO4)c(=O)n3C)c1
-1.1% | CCC1(C2CCN(C(=O)c3csc(C(C)=O)c3)CC2)NC(=O)N(CCc2scnc2C)C1=O (stereo unspecified)
-0.4% | COC(=O)C1CCN(Cc2ccc3c(c2)CN(C(=O)c2cc4cc(F)ccc4[nH]2)CCO3)CC1
-0.1% | COc1ccc(OCC(=O)Nc2ccccc2C(=O)OCc2cc(=O)n3nc(C)sc3n2)cc1
0.2% | NC(=O)C1CCN(C(=O)c2ccccc2NC(=O)c2nsc3ccccc23)CC1
-0.9% | COc1ccccc1CNC(=O)COCc1cc(-c2ccc3c(c2)OCO3)on1
0.9% | COc1ccc(S(=O)(=O)NCc2nc(-c3ccccc3)no2)cc1
3.6% | CCC(=O)NC(c1ccco1)c1cc(Br)c2cccnc2c1O (stereo unspecified)
-0.6% | COc1cc(-c2noc(CCC(=O)Nc3cc(C)ccc3C)n2)cc(OC)c1OC
-0.7% | O=c1c2ccccc2nc(-c2ccc(Cl)cc2)n1CCCOc1ccccc1F
-0.9% | Cc1ccc(NC(=O)C2CCCN(S(=O)(=O)c3ccc4c(c3)CCCC(=O)N4)C2)cc1Cl (stereo unspecified)
-0.6% | O=C(Nc1nc2n(n1)C(c1ccc(F)cc1)C=C(c1ccccc1)N2)c1ccc(Cl)cc1 (stereo unspecified)
1.3% | Fc1ccc(C(c2nnc(-c3ccccc3)o2)N2CCN(c3ccccc3)CC2)c(Cl)c1 (stereo unspecified)
-0.8% | COc1ccccc1C(=O)Nc1cc2c(cc1N1CCCC1)n(C)c(=O)c(=O)n2C
9.2% | Cc1nc(N)c2c(Cc3cccc4ccccc34)nn(C(C)(C)C)c2n1
-0.4% | Cc1cccc(NC(=O)CSc2nc(=O)n(CCN3CCOCC3)c3c2CCC3)c1
2.7% | CCN1C(=O)c2ccccc2Sc2ccc(NC(=O)c3ccc(C#N)cc3)cc21
0.6% | CCN1CCN(CCCNC(=O)c2ccc3c(c2)sc2nc(-c4ccc(OC)cc4)cn23)CC1
? | COc1ccc(N(Cc2cccs2)C(=O)COc2cc(C)c(Cl)c(C)c2)cc1
1.4% | N#C/C(=C/c1cn(Cc2ccc(F)cc2)c2ccccc12)C(=O)Nc1cccc(Cl)c1
-0.9% | COc1ccc(C(CNC(=O)COc2cc(C)cc(C)c2)N2CCCCC2)cc1 (stereo unspecified)
1.7% | Cc1cc(NC(=O)CCNS(=O)(=O)c2cccc3nsnc23)ccc1Br
-0.4% | COc1ccccc1NC(=O)C(=O)NCC(c1cccnc1)N1CCc2ccccc2C1 (stereo unspecified)
2.8% | COc1nnc(-c2ccc(N3CCCCC3)c(NC(=O)c3ccc(C)cc3)c2)c2ccccc12
-4.7% | CCN1CCc2c(sc(NC(=O)c3ccc(S(=O)(=O)N(CCOC)CCOC)cc3)c2C(N)=O)C1
0.3% | Cn1cc(S(=O)(=O)c2ccc(Cl)cc2)c(=O)c2cc(F)c(N3CCCC3)cc21

Rewritten field by field: 4 of the compounds above.
structure: COc1ccccc1NC(=O)C(=O)NCC(c1cccnc1)N1CCc2ccccc2C1 (stereo unspecified)
  PINK1 expr mod: -0.4%

structure: COc1nnc(-c2ccc(N3CCCCC3)c(NC(=O)c3ccc(C)cc3)c2)c2ccccc12
  PINK1 expr mod: 2.8%

structure: CCN1CCc2c(sc(NC(=O)c3ccc(S(=O)(=O)N(CCOC)CCOC)cc3)c2C(N)=O)C1
  PINK1 expr mod: -4.7%

structure: Cn1cc(S(=O)(=O)c2ccc(Cl)cc2)c(=O)c2cc(F)c(N3CCCC3)cc21
  PINK1 expr mod: 0.3%

Next entries follow.
PINK1 expr mod | Compound
-0.9% | CCCOC(=O)c1ccc(Nc2c(C(=O)OCC)cnc3c(C)cc(Cl)cc23)cc1
0.8% | Cc1ccc(-c2nn3c(C)nnc3c3ccccc23)cc1S(=O)(=O)NCC(C)O (stereo unspecified)
6.2% | CC1=C(C(=O)Nc2ccccc2)C(c2ccccn2)n2nc(SCc3ccccc3Cl)nc2N1 (stereo unspecified)
-0.3% | O=C(COc1ccccc1)Nc1ccc(S(=O)(=O)N(Cc2ccccc2)c2ccccc2)cc1
-1.1% | COc1ccc(NC(=O)C2CCN(S(=O)(=O)c3ccc4[nH]c5c(c4c3)CCCCC5)CC2)cc1
3.8% | COc1ccc(CNC(=O)Cn2c(SCC(=O)Nc3ccc(OC)cc3)nc3ccccc32)cc1
-0.2% | CC(=O)c1ccc(F)c(-c2cc(C)cc3c2OC(CNC(=O)C[C@@H]2C[C@@H](C)NC(=S)N2)C3)c1 (stereo partly specified)
2.9% | CCCCOc1cccc(C(=O)N(Cc2ccc(C)o2)c2ccccn2)c1
-0.5% | CCOC(=O)c1c(Nc2cc(C)cc(C)c2)nnc(-c2ccccc2)c1-c1ccccc1
1.4% | Cc1cc(OCC(=O)NCC2(N3CCOCC3)CCCCC2)ccc1Cl
2.4% | Cc1cc(=O)n(CC(=O)NCCC(C)C)c2c1c(C)nn2C
2.3% | CCn1cc(C(=O)N2CCN(c3cccc(C(F)(F)F)c3)CC2)c2cc(OC)c(OC)cc2c1=O
2.9% | Cc1ccc(-n2c(=O)c3cccnc3n2CC(=O)Nc2cccc(C)c2C)cc1
0.8% | CC(=O)N1CCc2c(sc3c2c(=O)n(-c2ccccc2C)c(=O)n3Cc2cccc(F)c2)C1
1.2% | O=C(CCNS(=O)(=O)c1cccc2nsnc12)Nc1ccc(F)cc1
4.8% | COc1ccc2c(Sc3ccc(Cl)cc3)c(C(=O)N3CCC(C)CC3)[nH]c2c1
? | CCN(CC)CCNC(=O)c1c(C)oc2ncnc(N3CCOCC3)c12

Some of the compounds tested. The share of hits here may be higher or lower than overall.
